Beta2AR agonist: activates human beta-2 adrenergic receptor causing internalization; P07550; Am2.2-beta2AR cells, FAP receptor internalization, flow cytometry; reference of the scale not given here; response, % (test concentration not listed); 340,000 tested, 0.43% active;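 active = response above a set limit, near 3 SD of response in nonfluorescent compounds, cut at about 42% in these data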;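 note: stock transfer was 100 nL into about 11 µL; a reference agonist was the positive control; negative values mostly stem from fluorescent compounds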
Target sequence (P07550 whole entry, looked up): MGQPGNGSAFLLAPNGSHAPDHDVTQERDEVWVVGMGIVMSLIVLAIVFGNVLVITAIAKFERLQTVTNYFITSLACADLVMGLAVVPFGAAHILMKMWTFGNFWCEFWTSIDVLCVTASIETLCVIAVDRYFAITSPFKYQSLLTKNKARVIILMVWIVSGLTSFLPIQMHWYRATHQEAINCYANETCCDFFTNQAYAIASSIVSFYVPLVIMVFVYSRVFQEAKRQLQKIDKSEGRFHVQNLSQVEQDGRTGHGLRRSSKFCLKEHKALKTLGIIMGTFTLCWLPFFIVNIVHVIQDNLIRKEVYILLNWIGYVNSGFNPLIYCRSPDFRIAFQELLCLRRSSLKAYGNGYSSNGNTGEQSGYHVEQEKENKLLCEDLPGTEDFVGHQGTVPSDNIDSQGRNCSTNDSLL
Ecoli rRNA inh: inhibitors of bacterial rRNA selective over humanized ribosomes. E. coli WT GFP vs humanized-ribosome RFP mutants, fluorescence, 24 h; stronger effect = lower value; DMSO median 0, no signal -100. GFP signal change (wild-type ribosome), % (no concentration beside the values). 350,000 tested, 1.6% active. AID 720706;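 active = significant combined selectivity score with lowered wild-type GFP, culture density cut under 30%, mutant RFP and density less affected; inactive = any of these conditions unmet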; note: one replicate is shown; some compounds called inactive have numbers as strong as hits
LANA-H2A inh: blocks KSHV LANA binding to histone H2A/H2B | Q9QR71 | cell-free LANA-H2A/H2B peptide, fluorescence polarization | inhibition, % (concentration not given with the values) | 320,000 tested, 0.6% active | AID 2629; in the data active = inhibition mostly above about 10%, no sharp cut-off; inactive = mostly below about 6.7%;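 note: stock transfer was 7.5 nL into about 10 µL; 0% = median of vehicle wells and 100% = median of positive control wells; one replicate is shown; the record names a cut of 25% in any replicate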
Beta cell apopt: beta cell apoptosis inhibition | INS-1E cytokine-induced death, ATP luminescence, 48 h; percent of positive-control rescue, neutral wells zero | protection from apoptosis, % (test concentration not listed) | 300,000 tested, 0.8% active | AID 435005;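 active = all replicates at 75% or more, or half of them and the mean; inconclusive = half reach 75% but not the mean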;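 note: 0% = cytokine-treated negative control wells and 100% = positive control rescue; higher means more ATP so stronger rescue from cytokine killing; wells of about 40 µL received 100 nL stock; the first replicate is given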
Bfl-1 A1 inh: inhibitors of the anti-apoptotic protein A1, read as caspase activation | MEF A1-2A-BIM cells, Caspase-Glo 3/7 luminescence, 3 h; percent of clofoctol response, vehicle zero | caspase activation, % (concentration not given with the values) | 330,000 tested, 0.066% active;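 active = over half of replicate activation scores above 10%, or exactly half above 10 with the replicate mean above 10; inconclusive = replicate mean below 10 yet half the replicates above 10; inactive = over half of replicates below 10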;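 note: wells of about 30 µL received 50 nL stock; many hits fall short of the cut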
T cruzi inh: blocks replication of Trypanosoma cruzi | T. cruzi beta-gal in NIH3T3, luminescence, 90 h | inhibition, % (test concentration not listed) | 300,000 tested, 1.4% active;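 active = mean inhibition across valid replicates above about 55%, limit read from the data; inconclusive = mean below that limit but half or more replicates reach it; inactive = mean below it, under half of replicates reach it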;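 note: signal also drops with host cell toxicity which is not excluded here; 0% = plate median of DMSO wells and 100% = zero luminescence signal; higher percent means less beta-gal luminescence so fewer parasites; stock transfer was 50 nL into about 50 µL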
ALR inh: blocks human ALR sulfhydryl oxidase activity. P55789. purified ALR, DTT oxidation, H2O2 HRP-luminol luminescence. inhibition, % (no concentration beside the values). 290,000 tested, 3.8% active. AID 485317;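 active = mean and each replicate at 75% or more; inconclusive = only one of the two met; inactive = neither met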;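 note: stock transfer was 7.5 nL into about 7.5 µL; 0% = neutral wells and 100% = wells with inactivated enzyme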
Target sequence (P55789 whole entry, looked up): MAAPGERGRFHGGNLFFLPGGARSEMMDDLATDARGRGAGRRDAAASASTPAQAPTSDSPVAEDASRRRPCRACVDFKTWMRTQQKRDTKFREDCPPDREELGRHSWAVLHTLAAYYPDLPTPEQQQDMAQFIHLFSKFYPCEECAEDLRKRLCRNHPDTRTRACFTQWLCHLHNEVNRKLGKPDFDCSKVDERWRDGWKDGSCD
Calb FLC: affects C. albicans growth with fluconazole; C. albicans CaCi-2 (fluconazole-resistant clinical isolate) + fluconazole, Alamar Blue growth, 48 h; growth inhibition, % (test concentration not listed); 300,000 tested, 0.57% active; AID 1979;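 active = most replicates above 75%; inconclusive = exactly half above 75%; inactive = most below 75%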;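 note: all wells also contain fluconazole at 8 µg/ml as a sub-toxic cotreatment; 0% = median of DMSO wells and 100% = median of geldanamycin control wells; wells of about 8 µL received 7.5 nL stock; the first replicate is given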
Ecoli rRNA inh OD600: also measured in Ecoli rRNA inh; calls as there; OD600 change, %; measured here: OD600 growth;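 optical density of the mix in the first replicate; 0 = DMSO median and -100 = no signal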
Ecoli rRNA inh RFP: recorded beside Ecoli rRNA inh, whose call it bears; RFP signal change, %; measured here: RFP humanized mutant strains;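 first replicate; 0 = DMSO median and -100 = no signal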
* = called active by the depositor; ? = inconclusive; / = not tested or not shown. Not all compounds are listed; count on the stated rates, not on these rows.

SMILES	Beta2AR agonist	Ecoli rRNA inh	Ecoli rRNA inh OD600	Ecoli rRNA inh RFP	LANA-H2A inh	Beta cell apopt	Bfl-1 A1 inh	T cruzi inh	ALR inh	Calb FLC
CC(=O)Nc1ccc(NC(=O)C(OC(=O)c2ccccc2)C(OC(=O)c2ccccc2)C(=O)O)cc1 (stereo unspecified)	5	24	14	0.6	-0.9	-13	0.4	-3	-89	3
CCN1C(=O)CC(NNC(=O)c2ccc(Cl)cc2)C1=O (stereo unspecified)	-1	/	/	/	-5.5	-5	0.5	-3	21	-1
CCCn1c(O)c(N=Nc2ccc3ccccc3n2)c2ccccc21	4	92	10	12	/	6	-3.7	13	/	-26
O=C(/C=C/c1cccs1)NC1CCS(=O)(=O)C1 (stereo unspecified)	/	16	18	2.1	3.3	-1	1.1	-6	-13	-10
O=C(COC(=O)c1ccccc1Br)Nc1cccnc1Cl	3	-2	-15	-1.9	2.4	-1	-1.3	/	-8	/
CCN1CCCC1CNC(=O)c1cc2c(C)nc3ccccc3c2o1 (stereo unspecified)	-3	/	/	/	-5.8	1	0.0	14	-3	12
Cc1ccc(-n2nnc(-c3cc4ccccc4n3C)n2)cc1	13	15	11	-0.1	-0.7	-4	-5.8	0	1	-10
CC1=NOC2(C1)/C(=N/O)CCC/C2=N\O (stereo unspecified)	7	/	/	/	-2.7	13	2.6	-25	8	-37
O=C(Nc1nnc(C2=COCCO2)o1)c1cccc(C(F)(F)F)c1	-3	-54	-75	-17	2.2	/	2.2	-13	54	3
O=C(/C=C/c1ccc(Cl)cc1Cl)NC(=S)Nc1ccc(CN2CCOCC2)cc1	-3	-16	-10	0.0	7.9	-3	-0.6	23	3	3
O=C(COc1cccnc1[N+](=O)[O-])N1CCN(S(=O)(=O)c2ccccc2)CC1	12	/	/	/	1.2	/	0.1	-1	21	0
COc1ccc(NC(=S)NCCN2CCOCC2)c(OC)c1	-2	8	4	2.7	-4.0	-1	-1.1	-4	-4	5
C1CCCC(NC2=NCCO2)CCC1	-5	/	/	/	-3.3	-5	0.2	3	-1	/
COC(=O)c1cc(C(=O)c2ccc(C(C)(C)C)cc2)c[nH]1	-4	-33	-49	-3.5	-3.2	7	0.5	18	35	6
CCC(=O)Nc1nnc(S(=O)(=O)N2CCCCCC2)s1	5	6	13	2.6	3.9	-2	-0.4	1	/	-3
CCOc1ccc(C(=O)NNC(=O)CNC(=O)c2ccc(C)s2)cc1OC	3	4	10	-0.4	6.1	-4	-0.6	/	-1	/
O=Cc1cn(CC(=O)NCC2CCCO2)c2ccccc12 (stereo unspecified)	-1	/	/	/	-6.9	1	0.9	12	-4	0
Cc1ccccc1CC1(CO)CCCN(C(=O)CCC(=O)c2ccccc2)C1 (stereo unspecified)	-7	-14	-17	-4.3	1.4	-5	-0.7	3	/	19
CCOC(=O)c1c(S(=O)(=O)N2CCN(C3CCCCC3)CC2)c(C)n(C)c1C	0	4	10	-1.6	-6.7	-3	0.5	0	0	-7
Cc1cccc(NC(=O)c2cc(=O)c3ccccc3o2)n1	0	/	/	/	2.5	-9	-1.0	-11	-11	-13
O=C(CCNC(=O)c1ccc(Cl)cc1)Nc1cccc(S(=O)(=O)N2CCCCCC2)c1	-5	-34	-46	-0.4	7.8	-3	-0.3	4	-9	/
CCc1cccc(OC2OC(CO)C(O)C(O)C2NC(C)=O)c1 (stereo unspecified)	-2	5	1	-2.0	-9.2	-8	1.3	-14	-1	12
COc1cccc(OCC(O)CN2CC(C)CC(C)C2)c1 (stereo unspecified)	4	/	/	/	0.6	-1	-0.1	3	1	-3
CCN(CC(=O)Nc1c(F)cccc1F)C(=O)Cc1n[nH]c(=O)c2ccccc12	2	8	16	0.1	-2.6	-5	-1.0	-3	-2	-5
O=C(CSc1ccc(F)cc1)NC12CC3CC(CC(C3)C1)C2	-4	-12	-19	0.7	8.3	6	-0.8	4	/	1

(list continues)
SMILES	Beta2AR agonist	Ecoli rRNA inh	Ecoli rRNA inh OD600	Ecoli rRNA inh RFP	LANA-H2A inh	Beta cell apopt	Bfl-1 A1 inh	T cruzi inh	ALR inh	Calb FLC
CCc1ccc(NC(=O)c2cc(C)on2)cc1	-1	6	-5	-16	-5.2	-4	-4.2	7	4	-18
COC(=O)c1cccc(NC(=O)C(C)N2C(=O)c3ccccc3C2=O)c1 (stereo unspecified)	1	3	10	0.4	0.7	3	0.2	-8	-5	-7
COc1ccc(O)c(-c2[nH]ncc2C(=O)c2ccccc2)c1	1	/	/	/	3.3	-7	1.3	-7	?	4
O=C(Cn1ccc2ccccc2c1=O)NCCC(=O)Nc1ccc(F)cc1F	-2	1	9	-4.0	0.3	2	0.4	-11	-12	2
O=C(C[C@H]1C/C=C\CC[C@@H](Cc2ccc(F)cc2)C(=O)O[C@H](c2ccccc2)CNC1=O)N[C@H](CO)Cc1ccccc1	6	-9	-12	-1.5	/	5	0.2	/	-1	/
COc1ccccc1CNc1ncc(-c2ccccc2)n1C	8	0	8	-2.1	/	/	/	10	/	-27
COc1ccc2[nH]c(C)c(CCNC(=S)Nc3cccc(C)c3)c2c1	8	-11	-16	2.8	-0.7	/	-0.3	-12	13	-4
CS(=O)(=O)N1CCC(C(=O)Nc2ccc(Cl)cc2)CC1	1	1	6	-1.3	4.8	5	0.8	-12	/	1
CCCCC(=O)N(CCOC)c1nnc(-c2ccccc2C)s1	-15	1	-3	-1.1	-0.8	-3	0.6	28	/	-5
Cc1ccc(S(=O)(=O)N2CCN(C(=O)CN3C(=O)NC4(CCCC4)C3=O)CC2)c(C)c1	-3	6	4	-1.7	0.6	-4	-0.2	10	-6	2
Cc1ccc(C(c2nnnn2CS(=O)(=O)c2ccc(C)cc2)N2CCC(C)CC2)cc1 (stereo unspecified)	2	/	/	/	3.5	/	-0.1	30	/	6
CS(=O)(=O)N1CCC(C(=O)O)CC1	4	13	13	-4.3	-3.7	-2	0.3	-5	-5	-1
CC1Cc2ccccc2C(CCc2ccccc2)=N1 (stereo unspecified)	3	4	0	0.6	3.5	3	-0.7	6	1	-14
COc1ccc2cc(CN(CC3CCCO3)S(=O)(=O)c3ccccc3)c(=O)[nH]c2c1 (stereo unspecified)	-11	/	/	/	-3.3	-1	-0.9	18	-3	-8
COc1cc(C(=O)NNC(=O)COc2cccc(F)c2)ccc1OCC(=O)N1CCOCC1	1	19	9	4.8	3.8	4	0.0	/	0	/
COCCC(=O)N1CCC(Oc2ccc(C(=O)N3CCCC(COC)C3)cc2)CC1 (stereo unspecified)	9	3	8	-3.6	/	/	/	-1	/	-8
O=C1N[C@@H](Cc2ccccc2)C(=O)N2[C@@H]1C[C@]1(Br)c3ccccc3N(S(=O)(=O)c3ccccc3)[C@H]21	/	/	/	/	-2.5	1	1.4	12	-5	7
CCC1CCCCN1C(=O)CCc1nnc(Cc2cc(OC)ccc2OC)o1 (stereo unspecified)	5	5	4	-5.2	1.5	-2	-0.9	-2	0	11
CCCc1nc2sc3ccccc3c(=O)c2c(=O)n1CCOC	/	/	/	/	1.9	3	0.1	-2	-25	-15
CN(CCc1ccccn1)C(=O)CCC1CCCN(C(=O)c2ccccn2)C1 (stereo unspecified)	1	11	6	-1.6	-4.8	-7	0.6	-7	2	-6
O=C(Oc1ccccc1C(=O)Nc1ccccc1)c1ccccc1Br	35	/	/	/	1.0	0	-0.3	-1	/	17
CCCCn1c(N)c(N(CC(C)C)C(=O)c2cc3c(s2)CCCCC3)c(=O)[nH]c1=O	1	-4	6	2.6	6.2	3	-0.2	0	-1	-5
O=C(CSc1ccc(C(F)(F)F)cc1[N+](=O)[O-])Nc1ccccc1	0	19	10	-1.2	2.7	-8	-0.2	-11	0	-7
Cc1cc(C)cc(OCC(=O)NCC2CCCO2)c1 (stereo unspecified)	-4	/	/	/	5.1	-1	0.6	-12	3	9
CCn1nc(C)c(CNC(=O)c2ccc(OC3CCN(Cc4ccccn4)CC3)cc2)c1C	-14	19	20	5.7	5.9	79*	-0.2	-36	-12	-4

More records:
SMILES	Beta2AR agonist	Ecoli rRNA inh	Ecoli rRNA inh OD600	Ecoli rRNA inh RFP	LANA-H2A inh	Beta cell apopt	Bfl-1 A1 inh	T cruzi inh	ALR inh	Calb FLC
Cc1ccc(CSc2nc3ccccc3c(=O)n2CCCC(=O)NCc2ccco2)cc1	-7	/	/	/	-3.2	32	1.0	24	4	-12
Cc1cc(C)n(-c2nc3c(c(=O)[nH]c(=O)n3C)n2CCc2ccccc2)n1	2	/	/	/	-2.0	-5	0.0	/	3	-2
Cc1ccc(O)c(C2=NCCNC(C(F)(F)C(F)F)=C2)c1	6	/	/	/	1.9	2	/	-6	99*	1
O=C(CSc1ccc2ccccc2n1)N/N=C/c1ccc(O)cc1	-10	-23	-23	-7.4	3.2	-1	0.4	-8	99*	39
Cc1cc2cc(CN(CCCN3CCOCC3)C(=O)NC3CCCCC3)c(=O)[nH]c2cc1C	-13	/	/	/	-1.9	-6	0.0	4	-9	-1
CCO[C@H]1OC(C(=O)N2CCOCC2)=C[C@@H](c2cn(C(C)=O)c3ccccc23)[C@@H]1CCCO	8	-3	-8	-4.0	0.4	3	-0.1	2	0	4
CCCCc1ccc(C(=O)NC(C(=O)O)C(C)C)cc1 (stereo unspecified)	-14	/	/	/	-1.9	-1	0.9	3	8	32
S=C(Nc1cccc2ccccc12)NC1CCCCC1	-14	-50	-77	-16	-7.4	0	0.8	0	-27	12
COCC(C)Nc1ccc(S(=O)(=O)N2CCCC2)cc1[N+](=O)[O-] (stereo unspecified)	-3	6	2	1.8	-5.0	-5	-0.1	1	/	-1
COC(=O)c1sccc1S(=O)(=O)Nc1ccc(Cl)cc1	9	-15	21	-3.3	-3.8	-1	0.0	1	6	-7
Cc1ccc(N(C(C)C(=O)O)S(=O)(=O)c2c(C)[nH]c(=O)[nH]c2=O)cc1 (stereo unspecified)	-5	15	15	1.6	9.8	-2	-0.2	-3	-1	-9
Cc1nn(-c2ccccc2)c(C)c1C(=O)OCC(N)=O	2	12	4	-1.9	3.7	-3	-0.1	-4	/	4
O=C(CN1CCN(C2CCCCC2)CC1)Nc1ccccc1N1CCCCC1	9	/	/	/	-2.8	5	-1.0	13	6	52
COC(=O)c1ccc(C(=O)OC)c(NC(=S)N2CCCCC2)c1	-1	/	/	/	-1.9	-12	0.1	3	0	-3
O=C(Nc1nc(-c2ccc(-c3ccccc3)cc2)cs1)C1=COCCO1	4	/	/	/	-0.6	7	-1.7	0	-1	0
Cc1ccc(-c2csc(NCCn3c(C)nc4cc(C(F)(F)F)ccc43)n2)cc1	-2	2	8	6.2	2.8	0	-0.5	/	-4	/
CC(C)c1ccccc1OCC(=O)NN1C(=O)c2ccccc2C1=O	3	2	-15	0.0	6.3	-4	-0.1	6	-2	15
COc1ccc(NC(C)=O)cc1CNC(=O)COc1ccccc1C(=O)Nc1cccc(C)c1C	-16	5	12	-2.5	1.5	0	0.1	-1	-2	-6
CSc1nc(Cl)cc(Nc2ccc(O)cc2)n1	-5	-24	-40	-2.9	-1.0	3	0.4	-28	99*	-7

Screening results (PubChem)
